# Screening results from PubChem BioAssay.
# Calb biofilm kill = clotrimazole potentiators killing C. albicans biofilm, primary screen, 4-compound mixtures | C. albicans biofilm persisters + clotrimazole, fluorescence viability; primary screen in compound mixtures of four per well | inhibition, % at 7.6 µM | actives 0.02% (n = 120,000);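 active = inhibition above 30.3% in the primary screen of four-compound pools, then above 30% when the compound was retested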;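 note: compounds exposed to preformed 24 h biofilms for 48 h; the number belongs to the whole pool; some results filed as inactive read as strong as hits; inactives centre near 12; 0% = biofilm with clotrimazole alone and 100% = kill control; retested singly at about 60 µM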
#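 Incubation: 24 h biofilm formation, then 48 h compound exposure, 37 °C | Material: C. albicans biofilms | Buffer or medium: RPMI/MOPS medium, pH 7.0 | Measured by: 2-h Alamar Blue fluorescence, 535/590 nm excitation/emission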
# An asterisk follows results filed as active. A portion of the library; count on the stated rates, not on these rows.
mol	Calb biofilm kill
CS(=O)(=O)c1ccc(Cl)c(NC(=O)COC(=O)/C=C/c2cnc3ccccc3n2)c1	21.1
O=C(COc1ccccc1)Nc1ccc(Cl)cc1Cl	36.1
Cc1cnc(NC(=O)CN2CCN(c3ccccc3F)CC2)s1	12.0
COc1ccc(CN2CCN(CC=C(C)C)C(CCO)C2)cc1Cn1cccn1 (centres undefined)	31.5
Cc1[nH]c(=O)[nH]c(=O)c1/C=N/NC(=O)[C@H](C)N	9.8
CCCCn1nnc(NC(=O)c2ccc(-c3cccc([N+](=O)[O-])c3)o2)n1	6.3
Cc1ccc(S(=O)(=O)Nc2ccc3c(c2)nc(CCN2CCOCC2)n3C)cc1	17.4
CC1(C)CNc2cc(N)ccc2S1	19.7
COC(=O)CCC(=O)Nc1cccc([N+](=O)[O-])c1	6.0
CC(=O)OCc1c(C)cc(C)c(/C=C(/C#N)C(N)=O)c1C	13.5
COc1ccc2c(OC)cc(-c3ccccc3)nc2c1	17.2
COc1ccc(Cn2c(=O)[nH]c3cc(C(=O)NCCc4ccc(S(N)(=O)=O)cc4)ccc3c2=O)cc1	1.3
Cc1ccc(NC(=O)CN(C)CC(=O)Nc2cccc(F)c2)cc1[N+](=O)[O-]	17.2
COc1cccc(Nc2c3c(nc4c(-c5ccccc5)c(C)nn24)CCC3)c1	7.8
COc1ccc(OC)c(NC(=O)COC(=O)/C=C/c2ccccc2Cl)c1	13.8
COc1ccc(C2OCC3(CO2)SC(=O)NC3=O)cc1 (centres undefined)	15.9
S=c1[nH]nc(-c2cccnc2)n1/N=C/C=C/c1ccccc1	13.9
O=C(O)CCCCCN1C(=O)/C(=C\c2ccncc2)SC1=S	17.2
N#Cc1ccc(Cl)cc1NC(=O)COC(=O)[C@H](CCC(N)=O)NC(=O)c1ccc(F)cc1	15.7
COCCNc1nc(C)c(C(C)=O)s1	4.1
CNc1c([N+](=O)[O-])cnn1-c1cccc(Cl)n1	-2.5
COc1ccccc1-n1c(SCC(N)=O)nc2sc3c(c2c1=O)CCC3	2.7
O=C(NCc1ccco1)C1CCN(S(=O)(=O)Cc2ccccc2)CC1	7.3
CCc1ccc(NC(=O)CN2C(=O)C(=O)N(Cc3ccccc3)C2=O)cc1	5.3
COC(=O)Cc1csc(Nc2ccccc2Cl)n1	18.9

# Next part; it opens with the six that closed the last part.
mol	Calb biofilm kill
COCCNc1nc(C)c(C(C)=O)s1	4.1
CNc1c([N+](=O)[O-])cnn1-c1cccc(Cl)n1	-2.5
COc1ccccc1-n1c(SCC(N)=O)nc2sc3c(c2c1=O)CCC3	2.7
O=C(NCc1ccco1)C1CCN(S(=O)(=O)Cc2ccccc2)CC1	7.3
CCc1ccc(NC(=O)CN2C(=O)C(=O)N(Cc3ccccc3)C2=O)cc1	5.3
COC(=O)Cc1csc(Nc2ccccc2Cl)n1	18.9
CC(C)N(C(=S)NC1CC2CCC1C2)c1ccccc1 (centres undefined)	5.0
CC(C)C(=O)OCC(=O)Nc1ccc(N=Nc2ccccc2)cc1	15.6
CCOC(=O)C1=NN(c2ccccc2)C(=O)C1	1.6
Nn1c(SCC(=O)NCc2ccccc2)nncc1=O	8.1
Brc1ccc(OCc2cn3ccccc3n2)cc1	6.2
O=[N+]([O-])c1cc2c(cc1/C=N/NS(=O)(=O)c1ccc(Br)cc1)OCO2	11.6
CCCCCCNC(=O)CCNS(=O)(=O)c1ccc(C)cc1	5.8
COc1cccc(NC(=O)CN2CCN(c3nc(-c4cccc(OC)c4)cs3)CC2)c1	6.5
Cc1cc(-c2n[nH]c(=S)n2/N=C/c2ccc(Cl)c([N+](=O)[O-])c2)n[nH]1	0.8
COc1ccc(C(=O)NNC(=O)c2ccccc2[N+](=O)[O-])cc1[N+](=O)[O-]	8.4
CC(C)c1ccc(NC(=O)c2n[nH]c(=O)c3ccccc23)cc1	2.3
COc1ccccc1NC(=O)C(=O)NCc1ccccc1Cl	3.1
N#Cc1c(NC(=O)C2CC2)sc2c1CCCCC2	15.4
Cc1ccc(C(=O)OCCn2cc(C#N)c(=O)[nH]c2=O)cc1	-0.9
Cn1c(=O)n(C)c2cc([N+](=O)[O-])c(N3CCN(C(=O)c4cccc(F)c4)CC3)cc21	11.2
CCc1nnc2cccc(Cl)n12	5.0
CC(C)c1nc(-c2ccc([N+](=O)[O-])cc2)cs1	12.9
Nc1cc(=O)[nH]c(=O)n1CC1CC1	8.7
COC(=O)c1sc2nc(C)cc(C)c2c1N	-5.5
CC(=O)c1sc(NC(=O)C2=NN(c3ccccc3)C(=O)CC2)nc1C	18.6
CCOC(=O)C1(Cc2ccc(OC)cc2)CCN(C(=O)CCc2cccnc2)CC1	20.4
CC(C)(C)c1cc2nc(N)nc(N)n2n1	6.1
COC(=O)C(N)Cc1ccc(OC)c([N+](=O)[O-])c1 (centres undefined)	9.4
COc1ccc(/C=N/Nc2cc(C)nc(N3CCOCC3)n2)cc1OC	35.4
CCOc1cc(/C=C/C(=O)NCCc2ccc(S(N)(=O)=O)cc2)ccc1OCC(C)C	15.0

# Single entries from the entries so far.
# In Calb biofilm kill, COC(=O)c1sc2nc(C)cc(C)c2c1N reads -5.5
# In Calb biofilm kill, COC(=O)Cc1csc(Nc2ccccc2Cl)n1 reads 18.9

# Additional records:
mol	Calb biofilm kill
CCOC(=O)C1=C(O)/C(=C/c2cc(OC)c(O)c(OC)c2)SC1=Nc1ccc(OC)cc1	11.9
O=C(Cc1ccc(S(=O)(=O)N2CCOCC2)s1)Nc1ccccc1Br	5.1
CCCN1CCC(NC(=O)CCc2nnc(Cc3cc(OC)ccc3OC)o2)CC1	6.7
Cc1ccc2cccc(N)c2n1	15.9
Cc1cccc(NC2SC(=O)N(CC(=O)O)C2=O)c1 (centres undefined)	13.6
CC1=C(C(=O)OCC(C)C)C(c2ccsc2)C2=C(CCCC2=O)N1 (centres undefined)	14.0
COc1ccc(-c2cc(=O)c3ccccc3n2C)cc1	-1.9
O=C(CNC(=O)c1cccs1)NCC(=O)OCc1ccc(F)cc1	27.1
O=C(N/N=C/c1ccco1)c1cc([N+](=O)[O-])cc([N+](=O)[O-])c1	7.7
CCOC(=O)c1sc(NC(=O)/C=C/c2ccc(F)cc2)nc1C	4.0
O=C(O)CC12CC3CC(C1)CC(n1ncc(NCc4ccccc4)c(Cl)c1=O)(C3)C2	20.0
NCCCC[C@H]1CNC(=O)C(=O)N1CC1CCCCC1	-1.0
C=CCNC(=O)Nc1ccc(F)cc1F	17.5
CC1(C)CC(=O)C2=C(C1)N(CCN1CCOCC1)C1=C(C(=O)CC(C)(C)C1)C2c1ccc(Cl)cc1	15.6
O=C(O)C(c1ccccc1)C1(O)CCCCC1 (centres undefined)	17.7
CCCN1CCN(C(=O)Nc2ccc(OCC)cc2)CC1	12.3
Cc1ccc2oc(=O)n(CC(=O)c3ccc(F)cc3)c2c1	-1.3
COC(=O)c1cc(S(=O)(=O)N2CCC(C(N)=O)CC2)oc1C	28.4
Cc1noc(C)c1COC(=O)/C=C/c1ccccc1Cl	14.7
COC(=O)c1sc(NC(=O)c2ccc(C)o2)nc1C	7.7
CCCCCCCCNC(=O)c1cnsn1	16.6
CS(=O)(=O)Nc1nc2n(n1)C(c1ccc(F)cc1)CC(c1ccccc1)N2 (centres undefined)	17.2
COc1ccc(CNC(=O)CN(Cc2ccc(OC)cc2)C(=O)c2csnn2)cc1	8.5
c1ccc(-c2ccc(C3CCCN3)cc2)cc1 (centres undefined)	8.4
O=C1OCC/C1=C\c1ccc(O)cc1	8.5

# Arranged by molar mass (high to low): some entries from above
mol	Calb biofilm kill
CS(=O)(=O)Nc1nc2n(n1)C(c1ccc(F)cc1)CC(c1ccccc1)N2 (centres undefined)	17.2
COC(=O)C(N)Cc1ccc(OC)c([N+](=O)[O-])c1 (centres undefined)	9.4
Nc1cc(=O)[nH]c(=O)n1CC1CC1	8.7

# (cont.)
mol	Calb biofilm kill
O=C(c1ccc(Cn2cc(Br)cn2)cc1)N1N=C(C(F)F)CC1(O)C(F)F (centres undefined)	8.1
O=C(c1cc2nc(-c3ccccc3)cc(-c3ccccc3)n2n1)N1CCCC1	1.0
Cn1ccc(NC(=O)Nc2cccc(C(F)(F)F)c2)n1	-0.5
CCOc1ncccc1C(=O)N=C1SCCN1C(=O)c1cccnc1OCC	8.7
CCOC(=O)c1ccc(N2CN(C3CCCCC3)CNC2=S)cc1	2.2
CC(C)(C)C(=O)/C=C/c1ccc(Oc2ccccc2)cc1	6.4
N=C1S/C(=C\c2ccco2)C(=O)N1c1nccs1	23.1
O=C(NCC(c1ccc(F)cc1)N1CCOCC1)c1ccc(C(=O)c2ccccc2)cc1 (centres undefined)	21.2
CCOc1ccc2nc(N3CCC(C(=O)NCCCN4CCOCC4)CC3)sc2c1	22.2
COc1ccc(Cn2nnnc2CN2CCC(O)(c3ccccc3F)CC2)cc1	10.8
CCC1CCCCN1CC(O)Cn1c2ccccc2n2c(=O)cc(C)c(C#N)c12 (centres undefined)	18.5
COC(=O)C(C)Oc1ccc(Oc2nc(Cl)ccc2Cl)cc1 (centres undefined)	19.2
COc1cc(C(=O)N/C(=C\c2cn(C)c3ccccc23)C(=O)NCCCO)cc(OC)c1OC	14.6
COC(=O)C(C(=O)OC)c1ncc(C(F)(F)F)cc1Cl	11.6
O=c1[nH]c2ccccc2nc1CCc1ccccc1	11.8
N#Cc1c(-c2ccncc2)c2c([nH]c1=O)-c1ccccc1OC2	24.5
O=c1c2c3c(sc2nc2n1CCCCC2)C(O)CCC3 (centres undefined)	27.4
Cc1cc(NC(=O)C2=C(O)c3ccccc3S(=O)(=O)N2C)no1	2.4
CCNc1ccc2noc3c2c1C(=O)c1ccccc1-3	10.8
Cc1ccc(NS(=O)(=O)c2ccc(Cl)c(C(=O)Nc3ccccc3-c3nc4ccccc4[nH]3)c2)cc1C	9.0
CSc1sccc1/C=N/O	11.1
CC(=O)Nc1ccc(OCC(=O)NCCc2ccccc2)cc1	7.6
NS(=O)(=O)c1cccc(NC(=O)CSc2nc3ccccc3n2-c2ccccc2)c1	17.6
COc1ccc(CC(=O)OCC(=O)Nc2cccnc2Cl)cc1OC	15.6
Cc1cc(C)c[n+](-c2nc3ccccc3nc2[N-]S(=O)(=O)c2cccs2)c1	5.5
O=C(COC(=O)/C=C/c1cccc(F)c1)Nc1ncccn1	15.2
Cn1cc(CCC(=O)N2CCCC(C(=O)c3cccc4ccccc34)C2)cn1 (centres undefined)	11.8
CC(=O)Nc1cccc(N/C(N)=N/c2nc(C)cc(C)n2)c1	4.9
COc1nc(-c2ccccc2)ncc1S(=O)(=O)c1ccccc1	12.2
O=C1C2C3C=CC(C4CC34)C2C(=O)N1/N=C/c1ccc(-c2ccc([N+](=O)[O-])cc2)o1 (centres undefined)	13.2
Cc1ccc(SC[C@H](CC(C)C)N2CCN(C)CCC2=O)cc1	12.5
CCOc1ccc(NC(=O)C2CCN(c3nnnn3-c3ccccc3)CC2)cc1	14.5
COc1cc(C(=O)NCC(=O)OCCN2C(=O)c3ccccc3C2=O)cc(OC)c1OC	3.0
CC(=O)c1ccc(S(=O)(=O)Nc2ccc(-c3ccc4nnc(C)n4n3)cc2)cc1	9.9
Cc1ccc(C)c(NC(=S)NC23CN4CN(CN(C4)C2)C3)c1	19.5
S=C1N(c2ccccc2)C(c2ccc(Br)cc2)N2CCCN12 (centres undefined)	24.5
Cc1cccc(C)c1OCC(=O)OC/C(O)=C(\C#N)c1nc2ccccc2[nH]1	24.5
CN(C)/C=C(/C(=O)c1ccccc1)S(=O)(=O)c1ccc(Cl)cc1	6.4
CCOc1ccc(/C=N/NC(=O)CSc2n[nH]c(=O)[nH]c2=O)cc1OC	21.2
CCc1ccc(S(=O)(=O)NC(=S)NC2CCCCC2)cc1	11.1
CCCC(=O)Nc1cc(C(=O)O)ccc1Sc1ccc(C)cc1	12.2
CCN(c1ccccc1)S(=O)(=O)c1cc(NC(=O)COC(=O)C2CC2)ccc1Cl	11.8
Cn1ncc(Cl)c1C(=O)Nc1ccncc1	11.7
COCCn1c(=NC(=O)/C=C/c2cccs2)sc2cc(NC(C)=O)ccc21	11.3
COc1ccc(C2CC(c3ccccc3)=NN2C(=O)COC(=O)c2cc(S(=O)(=O)N3CCOCC3)ccc2Cl)cc1 (centres undefined)	2.9
CCCCc1c(C)nc2ccccc2c1SCCC(=O)O	23.4
COc1ccc(N2CCN(C(CNC(=O)C(=O)NCCCn3ccnc3)c3cccnc3)CC2)cc1 (centres undefined)	26.4
CN(CCc1ccccn1)C(=S)Nc1ccc(Cl)cc1Cl	11.5
COC(=O)CSc1nc2ccc(C)cc2cc1C#N	20.3
CCOC(=O)c1ccc2c(c1)NCc1cccc(OC)c1O2	9.3
COc1cc(CN2CCCC(C(=O)c3ccccc3SC)C2)cc(OC)c1 (centres undefined)	10.8
NCCOc1ccccc1OCCN	14.7
Cc1ccc(/C=N/NC(=O)Cn2nc(C)c([N+](=O)[O-])c2C)o1	19.0

# Molecules shown so far containing a tert-butyl group (two):
mol	Calb biofilm kill
CC(C)(C)c1cc2nc(N)nc(N)n2n1	6.1
CC(C)(C)C(=O)/C=C/c1ccc(Oc2ccccc2)cc1	6.4
